High-throughput results from PubChem.
GALR2 agonist: GALR2 receptor agonists, primary screen, cell-based; Galanin receptor type 2 (Homo sapiens), O43603; GALR2-expressing cells, agonist activation read-out; activation, %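 (tested at 5 µM)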; 140,000 tested, 0.48% active; AID 803, 2007;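 active = above mean plus 3 SD of all compounds, about 5% in these data, not always enough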;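 also: 0% = vehicle buffer wells and 100% = reference agonist at full effect; tested in CHO reporter cells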
Target sequence (O43603 whole entry, looked up): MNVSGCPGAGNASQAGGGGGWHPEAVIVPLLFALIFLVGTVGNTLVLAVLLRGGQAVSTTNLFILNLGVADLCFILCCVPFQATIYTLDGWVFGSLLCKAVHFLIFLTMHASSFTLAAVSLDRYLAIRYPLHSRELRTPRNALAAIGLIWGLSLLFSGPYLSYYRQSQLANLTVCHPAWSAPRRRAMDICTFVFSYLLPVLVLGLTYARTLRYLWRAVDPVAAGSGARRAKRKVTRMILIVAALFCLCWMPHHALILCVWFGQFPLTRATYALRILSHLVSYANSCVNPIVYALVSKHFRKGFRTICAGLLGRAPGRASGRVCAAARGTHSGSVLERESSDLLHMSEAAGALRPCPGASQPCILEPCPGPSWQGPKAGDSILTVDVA
HSV augment: enhancers of HSV replication in host cells, fold increase, host cell viability; HSV replication augmentation in cells; maximum fold increase; 220,000 tested, 0.005% active; AID 1956, 2009;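 active = peak rise of 1.5-fold or more in the series; tested in PC3 cells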;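 also: first round at 10 µM; read as green reporter fluorescence; hits show the peak of a series up to 25 µM; 1 = signal of infected wells without compound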
RGS16-Gao: modulators of RGS16 binding to Galphao, primary screen, biochemical, human proteins, multiplexed bead flow cytometry; Regulator of G-protein signaling 16 (Homo sapiens) + Guanine nucleotide-binding protein …; bead-based flow cytometry RGS16-Galphao binding, fluorescence; actives lie on both sides; binding response (% of control), % at 10 µM; 220,000 tested, 0.38% active; AID 1441, 2008;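 active = below 25% or above 175%, edge rows of some plates excepted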;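 also: Galphao activated by GDP with aluminum fluoride before binding; 100% = wells without compound and 0% = beads without RGS; some results beyond the cut were filed as inactive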
Target sequence (O15492 whole entry, looked up): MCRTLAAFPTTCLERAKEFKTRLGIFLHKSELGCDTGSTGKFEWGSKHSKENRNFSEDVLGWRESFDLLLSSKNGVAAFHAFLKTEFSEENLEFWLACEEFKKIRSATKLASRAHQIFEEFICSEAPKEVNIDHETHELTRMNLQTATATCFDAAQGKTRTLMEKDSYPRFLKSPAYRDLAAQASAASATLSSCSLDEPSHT
Target sequence (P09471 whole entry, looked up): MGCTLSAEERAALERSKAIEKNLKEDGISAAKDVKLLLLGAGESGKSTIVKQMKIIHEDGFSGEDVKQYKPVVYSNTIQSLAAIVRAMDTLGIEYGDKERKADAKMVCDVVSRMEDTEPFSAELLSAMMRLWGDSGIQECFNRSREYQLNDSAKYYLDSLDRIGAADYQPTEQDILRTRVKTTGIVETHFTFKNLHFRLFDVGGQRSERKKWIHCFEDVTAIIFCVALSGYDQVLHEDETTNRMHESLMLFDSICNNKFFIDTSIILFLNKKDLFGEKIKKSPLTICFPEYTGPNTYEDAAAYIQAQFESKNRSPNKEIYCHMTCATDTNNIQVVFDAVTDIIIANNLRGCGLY
INS promoter inh: inhibitors of insulin promoter-driven GFP, primary screen, imaging, TRM-6 cells (human fetal islet line), eGFP reporter, cell count; AID 1273, 2008; reporter expression induced with tamoxifen; inhibition, % at 2 µM; 130,000 tested, 0.9% active;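 active = inhibition above the mean plus 3 SD, with well images judged a real hit on visual review, cut at about 60% in these data, passing the limit was not always enough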
PKD1 inh: inhibitors of human PKD1 kinase, biochemical, fluorescence polarization; Serine/threonine-protein kinase D1 (Homo sapiens), Q15139; PKD1 kinase fluorescence polarization assay; inhibition, %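 (about 10 µM by stock and volumes)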; 200,000 tested, 0.056% active; AID 797, 2007;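 active = inhibition of 50% or more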;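 also: controls were vehicle for no effect and a reference inhibitor for full effect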
INS promoter inh cell count: second read-out of INS promoter inh, no call of its own (marks repeat the call); normalized cell count, %; measured here: cell count, toxicity; reference of the scale not given here;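 cells exposed to compound for 48 h; stained nuclei by imaging scaled within each plate; lower means fewer cells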
HSV augment primary fold: second read-out of HSV augment, no call of its own (marks repeat the call); fold increase; compound at 10 µM; measured here: primary screen fold increase 10 uM; tested in PC3 cells;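 GFP signal in the first replicate; 1 = infected wells without compound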
Starred values were filed as active, the others as inactive; i = inactive; / = no result given. The order is random; about 1.3% have a hit in one of these screens.

SMILES | GALR2 agonist | HSV augment | HSV augment primary fold | RGS16-Gao | INS promoter inh | INS promoter inh cell count | PKD1 inh
COC(=O)c1ccc(NC(=S)Nc2ccccc2)cc1 | -1.0 | i | 0.89 | 103 | -43 | 89 | -3
ON1C(c2ccccc2C(F)(F)F)N(O)[C@H]2CCCC[C@H]21 (some centres not stated) | -1.4 | i | 0.97 | 101 | 3 | 124 | -6
CCCCC(=O)N/N=C(C)/C=C/c1ccccc1F | / | i | 0.92 | 99 | / | / | -2
CCOc1cc(C(=O)Nc2ccon2)cc(OCC)c1OCC | -1.8 | i | 0.96 | 107 | 52 | 93 | -7
CCC(=O)N(C)CCc1cc2c(c(OC)c1/C=N/NC(=O)c1ccncc1)OCO2 | / | i | 1.1 | 101 | / | / | /
COc1ccc(NS(=O)(=O)c2ccc(N)cc2)nn1 | -0.4 | / | / | 95 | -27 | 113 | 0
CCC(OC(=O)C(NC(=O)c1ccccc1)c1ccccc1)C(=O)Nc1cc(C)on1 (configuration not stated) | -2.0 | / | / | 104 | / | / | -4
Cc1cnc(C(=O)NC(C)CCc2ccccc2)cn1 (configuration not stated) | / | i | 0.98 | 97 | / | / | 0
O=C(Nc1ccc2c(c1)OCCO2)c1oc2ccccc2c1NC(=O)C1CC1 | / | i | 0.78 | 100 | -106 | 82 | -2
CCOC(=O)N1CCC(Nc2c(NCCCN(CC)Cc3ccccc3)c(=O)c2=O)CC1 | -3.0 | i | 1.1 | 108 | / | / | -9
Cc1cc(C)c(C)c(S(=O)(=O)NCc2ccc(C(=O)N3CCCCC3)cc2)c1C | -3.1 | i | 1 | 109 | -38 | 125 | 3
Cc1cc(C(=O)CSc2nnnn2-c2ccccc2)c(C)n1CC1CCCO1 (configuration not stated) | -0.4 | i | 0.81 | 106 | / | / | -2
Cn1c(=N)n(CC(=O)C(C)(C)C)c2ccccc21 | -2.0 | i | 1 | 96 | 44 | 111 | -5
COC(=O)c1cnn(-c2ccc(Cl)cc2)c1/C=N/NC(N)=S | / | i | 0.96 | 101 | / | / | /
COC(=O)C1=C(NC(=O)c2ccccc2C)CCS1 | / | i | 0.94 | 100 | / | / | -8
O=C(Nc1ccc2c(c1)OCCO2)N1CCN(c2ccccc2)CC1 | -2.1 | i | 0.94 | 97 | 10 | 109 | 4
Cc1cccc(Nc2cnn(C34CC5CC(CC(CC(=O)O)(C5)C3)C4)c(=O)c2Cl)c1 | -1.4 | i | 0.74 | 103 | -4 | 118 | 0
COc1ccc(/C=N/NC(=O)c2cccnc2)cc1CN1CCN(c2ccc(F)cc2)CC1 | / | i | 0.94 | 93 | / | / | 3
Cc1ccc2nc(-c3ccc(NC(=O)CN4C(=O)NC(C)(c5ccc(OC(F)F)cc5)C4=O)cc3)sc2c1 (configuration not stated) | 0.0 | i | 0.67 | 110 | / | / | -13
COc1ccc(/C=C2\Sc3ccc(C(=O)N4CCc5ccccc5C4)cc3N(C)C2=O)cc1 | -1.3 | i | 1 | 103 | -16 | 95 | 8
O=C(O)CCCN=Cc1c(O)c2ccccc2oc1=O | / | i | 0.92 | 99 | -58 | 133 | -4
COc1ccc(NC(=O)C2=NNC(=O)CC2)cc1S(=O)(=O)N1CCCCC1 | / | i | 0.83 | 103 | / | / | /
Cc1c(NC(=O)NC2CCCCC2)cccc1[N+](=O)[O-] | / | i | 1.1 | 97 | / | / | -4
O=c1c2ccccc2nc(-c2ccco2)n1Cc1ccccc1 | -2.0 | i | 1.1 | 106 | 0 | 80 | -4
CC(=O)NCC(=O)NC(C(=O)Nc1ccc2c(c1)OCCO2)c1ccccc1 (configuration not stated) | -0.8 | i | 0.92 | 100 | / | / | -5
Cc1c(C(=O)OC(C)C)sc(NC(=O)C2CCCO2)c1C(=O)OC(C)C (configuration not stated) | -2.0 | i | 0.92 | 81 | -3 | 135 | -4
CCCCCC(=O)N1CC2(CC)CN(C(=O)CCCCC)CC(CC)(C1)C2=O | / | i | 0.99 | 101 | / | / | /
O=C(NCC1CCCO1)c1csc2c1CCCCC2 (configuration not stated) | -1.5 | i | 0.98 | 68 | / | / | 11
CCN(C(=O)c1cc2c(=O)[nH]c3ccc(C)cc3c2s1)c1ccccc1F | / | i | 0.99 | 92 | / | / | /
CC(C)OC(=O)C1C(=O)CC(C)(O)C(C(=O)OC(C)C)C1c1cccc([N+](=O)[O-])c1 (configuration not stated) | / | i | 0.91 | 97 | -64 | 90 | 1
CCCCn1c(CN2CCN(c3ccc(F)cc3)CC2)nc2c1c(=O)n(C)c(=O)n2C | 0.3 | i | 0.95 | 111 | / | / | -4
O=C(O)CCN1C(=O)C2C3CC(C2C1=O)C1C(c2ccccc2)c2sc(=O)[nH]c2SC31 (configuration not stated) | / | i | 1 | 99 | 15 | 136 | 11
Cc1c(NC(=O)CSc2n[nH]c(=O)n2-c2ccccc2)c(=O)n(-c2ccccc2)n1C | / | i | 1.1 | 108 | / | / | -10
CC(=O)CCC(=O)N1CCCC(CNC(=O)c2ccc(-c3ccccc3)cc2)C1 (configuration not stated) | / | i | 0.9 | 94 | / | / | 0
NS(=O)(=O)c1cc2c(cc1Cl)NC(CSCc1ccccc1)=NS2(=O)=O | -0.1 | i | 0.82 | / | 57 | 69 | -1
Cc1cccc(S(=O)(=O)NCC2CCCO2)c1 (configuration not stated) | -2.3 | i | 0.91 | 102 | 16 | 123 | -2
c1ccc2c(-c3nnc4n3CCCCC4)c[nH]c2c1 | -0.6 | i | 0.87 | 104 | / | / | 2
CC(C)N1C(=S)SC2CS(=O)(=O)C=C21 (configuration not stated) | -2.8 | i | 0.89 | 103 | / | / | -1
c1ccc(C(c2nnnn2C2CCCC2)N2CCCCCC2)nc1 (configuration not stated) | 0.0 | i | 1 | 120 | / | / | -21
Cc1nc(NC(=O)c2ccc(-c3cc4ccccc4oc3=O)cc2)ccc1Br | 0.9 | i | 0.99 | 114 | -19 | 90 | 3
CNC(=O)C12N=CNN=C1N(C)C(=O)N2C (configuration not stated) | / | i | 0.86 | 102 | 40 | 108 | -1
CCOc1ccc(NC(=O)COC(=O)c2cccnc2)cc1 | -0.6 | i | 1.1 | 103 | / | / | 1
CCOC(=O)C1C(c2cc(OC)c(O)c(OC)c2)NC(=S)NC1(O)C(F)(F)F (configuration not stated) | -1.2 | i | 0.95 | 108 | 56 | 99 | 6
CCOC(=O)Cc1cc(=O)[nH]c(=O)[nH]1 | / | i | 0.71 | 101 | 8 | 75 | -1
CCOc1ccccc1-c1nc(-c2ccc(C)nc2OC)no1 | -0.1 | i | 0.99 | 99 | / | / | -7
Cc1ccccc1OCc1nc(-c2ccc(NC(=O)c3ccc4c(c3)OCO4)cc2)no1 | 5.9 | i | 0.91 | 100 | / | / | -9
CCOC(=O)c1[nH]ncc1CN1CCCC(C(=O)c2ccc(OC)c(OC)c2)C1 (configuration not stated) | / | i | 1 | 96 | 26 | 90 | 3
CCN1CCN(C(CNS(=O)(=O)c2cccs2)c2cccnc2)CC1 (configuration not stated) | / | i | 0.92 | 104 | / | / | /
Cc1nnc(N/N=C/c2cc(C)n(-c3ccc(F)cc3)c2C)n1N | 0.2 | i | 0.69 | 119 | 28 | 124 | -13
COc1ccc(N=C/C=C2/C=C(c3ccccc3)OC(C)(C)O2)cc1 | / | i | 1.2 | 107 | / | / | -3
(listing goes on)
SMILES | GALR2 agonist | HSV augment | HSV augment primary fold | RGS16-Gao | INS promoter inh | INS promoter inh cell count | PKD1 inh
COc1ccc(Oc2cnc3ccccc3n2)cc1 | / | i | 0.95 | 99 | 56 | 125 | -4
COC(=O)COn1c(-n2nc(C)cc2C)nc2ccccc2c1=O | -1.6 | i | 0.64 | 113 | 0 | 104 | 2
O=C1[C@H]2[C@H](ON3CCCC[C@H]23)C(=O)N1c1ccc(Cl)cc1 | / | i | 0.95 | 105 | 38 | 114 | -1
COc1ccc(-c2c3c([nH]c(=S)c2C#N)CCC3)cc1 | 0.8 | i | 1 | 93 | -29 | 127 | 1
O=C(CC1NC2CCCCC2NC1=O)Nc1ccc2c(c1)OCO2 (configuration not stated) | -2.5 | i | 0.86 | 103 | -53 | 137 | 1
CCOC(=O)C1(CCSC)NC(c2ccco2)C2C(=O)N(CC)C(=O)C21 (configuration not stated) | -2.5 | i | 1.2 | 101 | / | / | -4
CCC(=O)NC(=S)Nc1ccccc1C(=O)OC | -0.1 | i | 1 | 114 | -11 | 113 | 0
CCN(CC)C(=O)CSc1nnc(CNc2ccc(F)cc2)n1-c1ccccc1 | -1.3 | i | 0.85 | 107 | 73 | 109 | -5
O=C(CN1CCCC1)N1CCN(c2ccccc2)CC1 | / | i | 1.1 | 89 | / | / | 1
O=C(CCN1C(=O)C2C3C=CC(C3)C2C1=O)Nc1c(F)cccc1F (configuration not stated) | -2.1 | i | 0.98 | 100 | -6 | 63 | -7
c1coc(CNC2CCCCCCC2)c1 | -2.2 | i | 0.85 | 111 | / | / | 3
COc1ccc(CN2CCN(Cc3ccc(C)cc3)C(CCO)C2)cc1OC (configuration not stated) | / | i | 1.2 | 101 | / | / | -2
COc1cc(OC)cc(C(=O)N[C@H](C(=O)Nc2nc(-c3cc(OC)ccc3OC)cs2)C(C)C)c1 | / | i | 0.66 | 70 | 14 | 111 | -8
O=C(Nc1nc2ccc(F)cc2s1)c1ccccn1 | / | i | 0.66 | 91 | / | / | 5
CN(C)S(=O)(=O)c1ccc(N2CCCC2)c(C(=O)Nc2nc(-c3ccc(F)c(F)c3)cs2)c1 | -0.9 | i | 0.85 | 95 | -414 | 40 | -2
CS(=O)(=O)c1ccc2nc(NC(=O)C3CCCCC3)sc2c1 | -3.8 | i | 0.54 | 105 | -7 | 112 | -11
Cc1c(O)c2ccccc2oc1=O | / | i | 1.1 | 99 | / | / | /
CCC(C)[C@H](NC(=O)NCc1ccc(S(N)(=O)=O)cc1)C(=O)O (some centres not stated) | / | i | 1 | 100 | / | / | /

By substructure: the compounds so far containing an aryl methoxy group (13)
SMILES | GALR2 agonist | HSV augment | HSV augment primary fold | RGS16-Gao | INS promoter inh | INS promoter inh cell count | PKD1 inh
CCC(=O)N(C)CCc1cc2c(c(OC)c1/C=N/NC(=O)c1ccncc1)OCO2 | / | i | 1.1 | 101 | / | / | /
COc1ccc(NS(=O)(=O)c2ccc(N)cc2)nn1 | -0.4 | / | / | 95 | -27 | 113 | 0
COc1ccc(/C=N/NC(=O)c2cccnc2)cc1CN1CCN(c2ccc(F)cc2)CC1 | / | i | 0.94 | 93 | / | / | 3
COc1ccc(/C=C2\Sc3ccc(C(=O)N4CCc5ccccc5C4)cc3N(C)C2=O)cc1 | -1.3 | i | 1 | 103 | -16 | 95 | 8
COc1ccc(NC(=O)C2=NNC(=O)CC2)cc1S(=O)(=O)N1CCCCC1 | / | i | 0.83 | 103 | / | / | /
CCOC(=O)C1C(c2cc(OC)c(O)c(OC)c2)NC(=S)NC1(O)C(F)(F)F (configuration not stated) | -1.2 | i | 0.95 | 108 | 56 | 99 | 6
CCOc1ccccc1-c1nc(-c2ccc(C)nc2OC)no1 | -0.1 | i | 0.99 | 99 | / | / | -7
CCOC(=O)c1[nH]ncc1CN1CCCC(C(=O)c2ccc(OC)c(OC)c2)C1 (configuration not stated) | / | i | 1 | 96 | 26 | 90 | 3
COc1ccc(N=C/C=C2/C=C(c3ccccc3)OC(C)(C)O2)cc1 | / | i | 1.2 | 107 | / | / | -3
COc1ccc(Oc2cnc3ccccc3n2)cc1 | / | i | 0.95 | 99 | 56 | 125 | -4
COc1ccc(-c2c3c([nH]c(=S)c2C#N)CCC3)cc1 | 0.8 | i | 1 | 93 | -29 | 127 | 1
COc1ccc(CN2CCN(Cc3ccc(C)cc3)C(CCO)C2)cc1OC (configuration not stated) | / | i | 1.2 | 101 | / | / | -2
COc1cc(OC)cc(C(=O)N[C@H](C(=O)Nc2nc(-c3cc(OC)ccc3OC)cs2)C(C)C)c1 | / | i | 0.66 | 70 | 14 | 111 | -8
